StopGo FLuc: lowers the firefly signal of an FMDV 2A StopGo reporter | Potency, µM (top dose mostly 57.5 µM), for the others: at the top dose signal change, negative = less light | HEK cells with a luciferase reporter of 2A StopGo recoding | actives 0.23% (n = 120,000) | AID 1745856; active = well fitted falling curve with a large enough effect; inconclusive = small, poorly fitted or top-dose-only effect; inactive = no such curve, though single readings can be large or run the other way; also: nearly all actives have a fitted effect of over 60% in size; overnight with compound
2A Renilla: lowers the Renilla signal of an FMDV 2A StopGo reporter. Potency, µM (highest dose often 57.5 µM), inactives show at the highest dose signal change, negative = less light. HEK cells with a luciferase reporter of 2A StopGo recoding. actives 0.32% (n = 120,000); active means well fitted falling curve with a large enough effect; inconclusive means small, poorly fitted or top-dose-only effect; inactive means no such curve, though single readings can be large or run the other way; also: nearly all actives have a fitted effect of over 55% in size; overnight with compound
The depositor's hits bear a star; & = joins results of further samples; [ ] = another dose, or the depositor's remark. % is scaled to controls: 0 for no effect and ±100 for the full control effect; potency is read from the fitted curve at half-maximal effect.

Screening COc1ccc(NC(=O)c2nc(-c3ccc(C)cc3)n3c2CCCCC3)c(OC)c1 returned StopGo FLuc -13% and 2A Renilla 0%.
For O=C(NCc1ccco1)c1ccc2c(c1)N(Cc1cccc(Cl)c1)C(=O)c1ccccc1S2(=O)=O the results were StopGo FLuc -8% and 2A Renilla 101%[activator].
For Cc1ccc(Cn2c(SCC(=O)O)nc3c2c(=O)n(C)c(=O)n3C)cc1 the results were StopGo FLuc 13% and 2A Renilla 5%.
Screening CC(C)c1ccc(NC(=O)c2cc(S(=O)(=O)N3CCc4ccccc4C3)ccc2F)cc1 returned StopGo FLuc -5% and 2A Renilla -3%.
For O=C(Nc1ccc(F)cc1F)Nc1ncc(Cl)cc1Cl the results were StopGo FLuc 42%[activator] and 2A Renilla -12%.
For CCOC(=O)c1c(C)c(C(=O)NCc2ccc(Cl)cc2)c(C)n1C the results were StopGo FLuc -15% and 2A Renilla -9%.
`CCCc1cc(=O)[nH]c(SCC(=O)N2CCN(c3ccccc3OC)CC2)n1` gave StopGo FLuc 0% and 2A Renilla 0%.
CCOC(=O)c1noc2nc(C)n(Cc3cccc(C#N)c3)c(=O)c12 was read as StopGo FLuc -20% and 2A Renilla -11%.
Screening COc1ccc(CCN2C(=O)c3[nH]nc(-c4ccccc4O)c3C2c2ccc(O)c(OC)c2)cc1 (configuration not stated) returned StopGo FLuc -2% and 2A Renilla 47%[activator].
`O=C(NCCc1ccccc1)c1ccc(Nc2nc3ccccc3n3nnnc23)cc1` gave StopGo FLuc 16% and 2A Renilla 4%.
Screening CC(C)(C)c1ccc(/C=N/Nc2ccc(S(N)(=O)=O)cc2[N+](=O)[O-])cc1 returned StopGo FLuc 57%[activator] and 2A Renilla -10%.
Screening Cc1n[nH]c(=O)c2c(NC(=O)CSc3nnc(C4CC4)n3C3CC3)oc(C)c12 returned StopGo FLuc -3% and 2A Renilla -2%.
For COc1ccc(-c2c(C)oc3cc(OCC(=O)OCc4ccccc4)ccc3c2=O)cc1OC the results were StopGo FLuc 7% and 2A Renilla -12%.
Screening Cc1cccc(/C=C/c2nc3ccccc3c(=O)n2-c2ccc(C(=O)O)cc2)c1 returned StopGo FLuc 34%[activator] and 2A Renilla 5%.
CC(C)=CC(=O)Nc1ccc2c(c1)CCC2 was read as StopGo FLuc 145%[activator] and 2A Renilla -4%.
Screening N#Cc1ccc(CN2CCCc3cc(F)cc(F)c32)cc1 returned StopGo FLuc 18% and 2A Renilla 4%.
CCC(CC)C(=O)Nc1cccc(-c2nc3ccccc3o2)c1 was read as StopGo FLuc 28% and 2A Renilla 16%.
`CC(=O)N1CCC(N(C(=O)Nc2c(F)cccc2F)C(C)C)CC1` gave StopGo FLuc -1% and 2A Renilla -6%.
`Cc1ccc(-c2cc(C(=O)OCC(=O)NC34CC5CC(CC(C5)C3)C4)c3ccccc3n2)o1` gave StopGo FLuc 59%[activator] and 2A Renilla 8%.
For O=C(NC1CCCCC1)C1CCCN(CCCc2nc3ccccc3o2)C1 (configuration not stated) the results were StopGo FLuc -8% and 2A Renilla -2%.
Clc1ccccc1NN=C1c2ccccc2-c2ccccc21 was read as StopGo FLuc 10% and 2A Renilla 8%.
Cc1cc(O)c(C(c2ccccc2)N2CCCCC2)c(=O)n1Cc1ccco1 (configuration not stated) was read as StopGo FLuc -22% and 2A Renilla -6%.
Screening CNC[C@H](O)c1cccc(O)c1 returned StopGo FLuc 12% and 2A Renilla 8%.
CCc1ccc2[nH]c(CSCC(=O)Nc3ccc(OC)c(Cl)c3)cc(=O)c2c1 was read as StopGo FLuc 5% and 2A Renilla 7%.
`CCSc1nc2n(n1)C(c1ccc(OC)cc1)C1=C(CC(C)(C)CC1=O)N2` (configuration not stated) gave StopGo FLuc 1% and 2A Renilla 9%.
For CNC(=O)c1cccc(NC(=O)CC(C)(C(=O)O)c2ccccc2)c1 (configuration not stated) the results were StopGo FLuc 5% and 2A Renilla 9%.
`COc1ccc(-c2cc(C(=O)NC3CC(C)(C)NC(C)(C)C3)c3ccccc3n2)cc1OC` gave StopGo FLuc -28% and 2A Renilla -30%.
For Brc1ccccc1CSc1nnc(-c2cccnc2)o1 the results were StopGo FLuc 25% and 2A Renilla 13%.
For Cc1cccc(C)c1OCC(O)Cn1cnc2c(cnn2-c2ccc(F)cc2)c1=O (configuration not stated) the results were StopGo FLuc inconclusive and 2A Renilla inconclusive.
For CCN(CC1CCOC1)C(=O)C=C(C)C (configuration not stated) the results were StopGo FLuc 10% and 2A Renilla 17%.
`COc1cccc(OCCNC(=O)c2ccc3[nH]c(C)c(C)c3c2)c1` gave StopGo FLuc 25% and 2A Renilla -9%.
For COc1ccc(-c2cc(=O)n(-c3ccc(C)c(C)c3)[nH]2)cc1 the results were StopGo FLuc 7% and 2A Renilla -7%.
Screening COc1ccc(Br)cc1CN(C)C(=O)c1cc(Cl)c2c(c1)OCCO2 returned StopGo FLuc -7% and 2A Renilla 144%[activator].
For Cc1nc(-c2ccc(S(=O)(=O)N(C)Cc3ccccc3)cc2)co1 the results were StopGo FLuc 14% and 2A Renilla 12%.
Screening CC(C)c1ccc(CNC(=O)c2ccc(N3CCCC3)c(NC(=O)NCc3ccccc3)c2)cc1 returned StopGo FLuc 11% and 2A Renilla -8%.
`COc1ccccc1-c1nc(C#N)c(N2CCN(Cc3ccccc3)CC2)o1` gave StopGo FLuc 0% and 2A Renilla 21%.

3 compounds picked at random from those above, as already listed:
For Cc1cccc(C)c1OCC(O)Cn1cnc2c(cnn2-c2ccc(F)cc2)c1=O (configuration not stated) the results were StopGo FLuc inconclusive and 2A Renilla inconclusive.
Screening CC(C)c1ccc(CNC(=O)c2ccc(N3CCCC3)c(NC(=O)NCc3ccccc3)c2)cc1 returned StopGo FLuc 11% and 2A Renilla -8%.
`COc1ccc(-c2cc(C(=O)NC3CC(C)(C)NC(C)(C)C3)c3ccccc3n2)cc1OC` gave StopGo FLuc -28% and 2A Renilla -30%.

Further results
Cc1ccc(CCNc2ncnc3onc(-c4ccc(F)cc4)c23)cc1 was read as StopGo FLuc 7% and 2A Renilla 7%.
O=C(Nc1cccc(S(=O)(=O)N2CCCC2)c1)C1=COCCO1 was read as StopGo FLuc 7% and 2A Renilla 8%.
COc1ccc(Cn2c(=O)c3oc4ccccc4c3n(Cc3ccc(F)cc3)c2=O)cc1 was read as StopGo FLuc -6% and 2A Renilla -10%.
Screening N#C/C(=C\c1ccc(-c2ccc(Cl)cc2)o1)c1nc2ccccc2[nH]1 returned StopGo FLuc 43% and 2A Renilla 0%.
Screening COc1ccc(C2=Nc3ccccc3NC(c3cccs3)=N2)cc1 returned StopGo FLuc 9% and 2A Renilla 3%.
O=C(CSc1ccc2nc(-c3ccccc3)cn2n1)Nc1ccccc1C(F)(F)F was read as StopGo FLuc 43%[activator] and 2A Renilla -3%.
`Cc1ccc(-c2cnc(-c3ccccc3C(=O)OCC(=O)NCCC#N)o2)cc1` gave StopGo FLuc 69%[activator] and 2A Renilla 45%[activator].
For Cc1cc(C)cc(NC(=O)Cc2c(C(=O)O)c(C)cn2C)c1 the results were StopGo FLuc -12% and 2A Renilla -4%.
C=CCNCc1ccccc1OCC was read as StopGo FLuc 24% and 2A Renilla 2%.
Screening COc1ccc(-n2nc(C(=O)Nc3cc(C)ccn3)c3c4ccccc4n(C)c3c2=O)cc1Cl returned StopGo FLuc -9% and 2A Renilla 3%.
Screening CCCCSc1nc2c(c(=O)n(C)c(=O)n2C)n1Cc1ccc(Cl)cc1 returned StopGo FLuc 16% and 2A Renilla -3%.
Screening COC(=O)N/N=C/C(C)=C/c1ccccc1 returned StopGo FLuc 176%[activator] and 2A Renilla 12%.
CCCCNC(=O)C(C#N)c1nc2ccccc2nc1N1CCN(C(=O)OCC)CC1 (configuration not stated) was read as StopGo FLuc 121%[activator] and 2A Renilla 9%.
For Cc1ccc(-c2nnc(Nc3ccc(Cl)c(Cl)c3)c3ccccc23)cc1S(=O)(=O)N(C)C the results were StopGo FLuc -23% and 2A Renilla 64%[activator].
`COC(=O)C1=C(C)OC(N)=C(C#N)C1c1ccccc1C(F)(F)F` (configuration not stated) gave StopGo FLuc 0% and 2A Renilla -12%.
For COc1ccc2c(C)c(CC(=O)NCCc3ccccc3)c(=O)oc2c1OC the results were StopGo FLuc -4%&-2% and 2A Renilla -5%&-11%.
Screening CCc1cccc(C)c1NC(=O)Nc1csc2c1CCCC2 returned StopGo FLuc -22% and 2A Renilla -13%.
`Cc1ccccc1C(=O)NC(NC(=O)c1ccccc1C)c1ccc(Br)cc1` gave StopGo FLuc -7% and 2A Renilla 18%.
Screening O=C1c2ccccc2C(c2ccc(NC(=O)C(c3ccccc3)c3ccccc3)cc2)(c2ccc(NC(=O)C(c3ccccc3)c3ccccc3)cc2)c2ccccc21 returned StopGo FLuc 23% and 2A Renilla 19%.
For CCCN1CCN(CCCNC(=O)c2ccc3c(c2)sc2nc(-c4ccc(C)cc4)cn23)CC1 the results were StopGo FLuc 116%[activator] and 2A Renilla 8%.
For O=C1CCC/C(=N/NC(=O)c2cc(-c3ccncc3)nc3ccccc23)C1 the results were StopGo FLuc 16% and 2A Renilla 11%.
`C=CCN(Cc1ccc2c(c1)OCO2)C(C#CC1CC1)C(C)C` (configuration not stated) gave StopGo FLuc -4% and 2A Renilla -5%.
For Cc1nc2nc(-c3ccccc3Cl)nn2c(C)c1CC(=O)N1CCCC1 the results were StopGo FLuc 9% and 2A Renilla -8%.
For O=C(O)CNC(=O)CNC(=O)CCn1c(-c2ccccc2)cc2ccccc21 the results were StopGo FLuc 3% and 2A Renilla -4%.
For Cc1cccc(-n2c3c(cc(C#N)c2=O)C(=O)CC(c2ccccc2)C3)c1 (configuration not stated) the results were StopGo FLuc 1% and 2A Renilla -5%.
For O=C(CSc1nc2ccccc2[nH]1)N1N=C(c2cccs2)CC1c1ccco1 (configuration not stated) the results were StopGo FLuc 3% and 2A Renilla 0%.
CN(C)CCNC(=O)c1ccc(-c2nn(C)c(=O)c3ccccc23)cc1 was read as StopGo FLuc 34%[activator] and 2A Renilla 18%.
Screening CCOCCCNC(=O)C1CCN(c2cc(C)nc3c(-c4ccc(Cl)cc4)c(C)nn23)CC1 returned StopGo FLuc -5% and 2A Renilla -5%.
For COc1ccccc1CNC(=O)C(NS(=O)(=O)c1cccs1)C(C)C (configuration not stated) the results were StopGo FLuc -14% and 2A Renilla 13%.
For CCCCCCCNC(=O)CCNC(=O)c1ccccc1 the results were StopGo FLuc 7% and 2A Renilla -6%.
For COc1cccc(-c2ccc(=O)n(CC(=O)NCCc3ccc(OC)c(OC)c3)n2)c1 the results were StopGo FLuc 3% and 2A Renilla -8%.
Cn1nc(-c2ccc(OCC(=O)NC3CCCCC3)cc2)c2ccccc2c1=O was read as StopGo FLuc 0% and 2A Renilla 13%.
For COc1cccc(NC(=O)C(=O)c2c(C)[nH]c3ccccc23)c1 the results were StopGo FLuc 116%[activator] and 2A Renilla 60%[activator].
Screening Nn1c(SCc2ncc(-c3ccccc3)o2)nnc1-c1ccc(F)cc1 returned StopGo FLuc 41%[activator] and 2A Renilla 59%[activator].
For COc1cccc(C(=O)NCCc2csc(-c3cccc(F)c3)n2)c1OC the results were StopGo FLuc -20% and 2A Renilla -4%.
`Cc1ccc(C(C)C)c(Oc2ccc(C#N)c(C#N)c2)c1` gave StopGo FLuc 28% and 2A Renilla 17%.

Next part, overlapping the part above by 4 compounds.
For COc1cccc(NC(=O)C(=O)c2c(C)[nH]c3ccccc23)c1 the results were StopGo FLuc 116%[activator] and 2A Renilla 60%[activator].
Screening Nn1c(SCc2ncc(-c3ccccc3)o2)nnc1-c1ccc(F)cc1 returned StopGo FLuc 41%[activator] and 2A Renilla 59%[activator].
For COc1cccc(C(=O)NCCc2csc(-c3cccc(F)c3)n2)c1OC the results were StopGo FLuc -20% and 2A Renilla -4%.
`Cc1ccc(C(C)C)c(Oc2ccc(C#N)c(C#N)c2)c1` gave StopGo FLuc 28% and 2A Renilla 17%.
Screening O=C(CN1CCN(C2CCS(=O)(=O)C2)CC1)N1CC=C(c2ccccc2)CC1 (configuration not stated) returned StopGo FLuc 25% and 2A Renilla 5%.
`CCC(=O)Oc1ccc2c(=O)c(Oc3ccccc3Br)c(C)oc2c1` gave StopGo FLuc 13% and 2A Renilla 0%.
Screening CN(C)S(=O)(=O)c1ccc(Cl)c(C(=O)Nc2cc(Cl)cc3cccnc23)c1 returned StopGo FLuc -10% and 2A Renilla -5%.
`CN(Cc1ccccc1)c1oc(-c2ccco2)nc1C#N` gave StopGo FLuc 23% and 2A Renilla 69%[activator].
O=C(OCc1ccc(Br)cc1)c1cccc(O)c1 was read as StopGo FLuc 0% and 2A Renilla 12%.
For COc1ccc(CNC(=O)c2cc3c(=O)n(Cc4cccnc4)ccc3nc2C)cc1 the results were StopGo FLuc -23% and 2A Renilla 17%.
Screening O=C(CN1CCN(c2ccc(O)cc2)CC1)Nc1ccnn1Cc1ccccc1Cl returned StopGo FLuc -3% and 2A Renilla 0%.
c1ccc2c(CNC3CCCCC3)cccc2c1 was read as StopGo FLuc 0% and 2A Renilla 9%.
`O=C(COc1ccc(Cl)cc1Cl)OCC(=O)c1ccc(Br)cc1` gave StopGo FLuc 4% and 2A Renilla 2%.
`Cc1cc(C)c(OCC(=O)Nc2ccc(NC(=O)c3ccco3)c(C)c2)c(Br)c1` gave StopGo FLuc inconclusive and 2A Renilla -7%.
CCCCN(C(=O)c1cccnc1OCC)c1c(N)n(CCC)c(=O)[nH]c1=O was read as StopGo FLuc 6% and 2A Renilla 7%.
For CCCn1nc(C(=O)Nc2nc(-c3ccc(OC)cc3)cs2)c2ccccc2c1=O the results were StopGo FLuc 0% and 2A Renilla 11%.
Screening C/C=C/Cn1c(SCCCc2ccccc2)nc2c1c(=O)[nH]c(=O)n2C returned StopGo FLuc -29% and 2A Renilla -25%.

Bioassay records deposited in PubChem by National Center for Advancing Translational Sciences (NCATS).

Only part of the results is shown. The share of hits here may be higher or lower than overall.
